High-throughput results (PubChem BioAssay)
CtBP-E1A inh: CtBP/E1A binding inhibition. AlphaScreen GST-E1A/His-CtBP binding, 1536-well; stronger effect = lower value; control for the full effect not named in the record. AID 651724. activity change, % (test concentration not listed). 340,000 compounds, 0.49% hits; in the data active means activity change below about -65%; inconclusive means about -30% to -65%; inactive means above about -30%; note: % is set by controls: 0 for no effect and ±100 for the full control effect
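Homogeneous bead-based format: GST-tagged E1A captured on glutathione donor beads, His-tagged CtBP on nickel acceptor beads; compounds precede bead addition by 2 h at 37 °C.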
Six1-Eya2 blk: Six1/Eya2 interaction inhibition; Q15475+O00167; AlphaScreen GST-Six1/His-Eya2 binding, biochemical; stronger effect = lower value; control for the full effect not named in the record; activity change, % (test concentration not listed); 360,000 compounds, 0.56% hits; AID 651725; in the data active = activity change below about -65%; inconclusive = about -30% to -65%; inactive = above about -30%; note: % is set by controls: 0 for no effect and ±100 for the full control effect
Target sequence (O00167 whole entry, looked up): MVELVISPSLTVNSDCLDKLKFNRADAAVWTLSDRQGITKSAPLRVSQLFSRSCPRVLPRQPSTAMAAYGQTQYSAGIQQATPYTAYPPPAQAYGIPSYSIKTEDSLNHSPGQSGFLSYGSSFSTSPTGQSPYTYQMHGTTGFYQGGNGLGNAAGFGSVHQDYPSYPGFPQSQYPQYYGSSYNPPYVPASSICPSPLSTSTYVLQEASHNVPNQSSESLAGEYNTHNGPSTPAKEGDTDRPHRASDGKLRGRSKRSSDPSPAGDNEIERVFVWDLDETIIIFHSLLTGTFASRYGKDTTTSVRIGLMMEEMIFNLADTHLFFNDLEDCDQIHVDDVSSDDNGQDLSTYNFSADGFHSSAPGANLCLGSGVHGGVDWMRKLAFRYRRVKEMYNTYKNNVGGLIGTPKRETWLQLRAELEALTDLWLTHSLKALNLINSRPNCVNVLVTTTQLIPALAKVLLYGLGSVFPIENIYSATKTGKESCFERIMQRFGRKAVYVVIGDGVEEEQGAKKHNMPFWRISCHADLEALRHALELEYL
Target sequence (Q15475 whole entry, looked up): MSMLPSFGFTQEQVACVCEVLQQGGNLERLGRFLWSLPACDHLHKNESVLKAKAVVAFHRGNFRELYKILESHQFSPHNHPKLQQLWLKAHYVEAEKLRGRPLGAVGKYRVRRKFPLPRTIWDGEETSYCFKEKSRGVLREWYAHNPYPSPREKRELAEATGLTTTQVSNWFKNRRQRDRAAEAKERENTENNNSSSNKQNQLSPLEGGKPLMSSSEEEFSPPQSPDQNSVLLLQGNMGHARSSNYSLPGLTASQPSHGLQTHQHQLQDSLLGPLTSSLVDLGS
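GST-Six1 + His-Eya2 (5X stock: 250/500 nM); Tris pH 8.0, 300 mM NaCl, 0.05% BSA, 0.02% Tween 20; GSH donor/Ni acceptor beads; 1 h 37 °C dark; AlphaScreen readout.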
PINK1 modulator: modulators of PINK1 expression. Potency, µM (titrated, usually from 76.6 µM), for the others: at the top dose activation (PINK1 increase), usual class: activators. PINK1 immunofluorescence, high-content cytometry, 24 h. 410,000 compounds, 0.2% hits; active = well fitted activation curve with a large enough effect; inconclusive = small, poorly fitted or top-dose-only effect; inactive = flat fitted curve, though single readings scatter; cell line not stated here;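 note: potency is the fitted concentration of half-maximal effect; % of control where 0% means no effect; nearly all actives have a fitted effect of over 65% in size; a mitochondrial uncoupler was the plate control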
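A stable cell line was treated with compounds at 5 concentrations for 24 hours, with CCCP as control. PINK1 levels and mitochondrial localization were measured by immunofluorescence with mitochondrial, cell and nuclear markers after fixation, read by laser-scanning cytometry.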
TRPML1 agonist: activates the human TRPML1 channel; Q9GZU1; TRPML1-expressing cells, Ca2+ dye fluorescence, FDSS; host cell line not named in the record; reference of the full effect not given here; activation, % (test concentration not listed); AID 624414; 410,000 compounds, 0.12% hits; in the data active = activation above about 50%; inconclusive = about 30% to 50%; inactive = below about 30%; note: 0% is about no effect; the text of the record puts the active cut at 80%
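Agonist activity was taken from a 110 s kinetic Ca2+ dye read on the FDSS after pinning compounds onto TRPML1-DL cells. The cells were seeded at 1,500/well with Tet inducer, incubated about 16 h, then dye-loaded at room temperature.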
D2 ag: agonists of human D2 dopamine receptor (beta-arrestin). P14416. DiscoveRx PathHunter D2 beta-arrestin, luminescence, 90 min; 100% = 57 uM dopamine signal. activation, % (concentration not given with the values). 360,000 compounds, 0.084% hits. AID 624465; in the data active = activation above about 40%; inconclusive = about 15% to 40%; inactive = below about 15%; note: the text of the record calls up to 30% inactive
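DiscoveRx PathHunter D2 beta-arrestin cells (2,100/well) attached overnight, then compound-stimulated 90 min at 37 C in HBSS/10 mM HEPES/0.1% Tween-20 buffer; beta-galactosidase complementation read by luminescence after 1 h at ambient temperature. Dopamine 57 uM final (EC100) as control.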
TRPML1 inh: human mucolipin-1 channel inhibition; 390,000 compounds, 0.02% hits; Q9GZU1; activity change, negative = inhibition, % (no concentration beside the values); TRPML1-inducible cells, Ca2+ dye fluorescence, FDSS; stronger effect = lower value; inhibition of EC80 agonist-evoked calcium signal; in the data active means activity change below about -50%; inconclusive means about -30% to -50%; inactive means above about -30%;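 note: stimulus is agonist 54-4 at its EC80 concentration; % is set by controls: 0 for no effect and ±100 for the full control effect; compound concentration not given in the record; the text of the record puts the active cut at -80%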
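Calcium fluorescence in TRPML1-DL cells induced overnight with Tet: a 110 s read after compound pin addition, then a 110 s antagonist read after challenge with 54-4 at 4 uM final (EC80).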
Numbers without * were called inactive; u = inconclusive; x = no result given; & = joins results of further samples; [ ] = dose if it differs, or a comment.

canonical_smiles,CtBP-E1A inh,Six1-Eya2 blk,PINK1 modulator,TRPML1 agonist,D2 ag,TRPML1 inh
CCN(CC(=O)Nc1ccccc1C(F)(F)F)C(=O)c1ccc(N2CCCC2=O)cc1,x,-2,0.8%,-0.5,-3.4,5
O=C(NO)c1ccccc1O,7,7,1.2%,0.5,8.9,6
CC1CCCCC12NC(=O)N(CC(=O)NC1CCCc3ccccc31)C2=O (stereo not drawn),-7,9,0.7%,1.1,-0.3,-14
CCOC(=O)c1cc(NC(=O)C2CCCO2)cc(C(=O)OCC)c1 (stereo not drawn),0,0,-3.6%[38.3 µM],0.1,3.7,7
CCOC(=O)c1sc(NC(=O)CSc2nc(C)cc(C)c2C#N)c(C#N)c1C,1,-2,2.2%,-0.1,-0.1,5
CSc1ncc(Cl)c(C(=O)N(C)c2ccccc2)n1,x,x,1.9%,0.4,x,29
CCCCN(C(=O)CSc1nnc(-c2ccccc2)o1)c1c(N)n(CCC)c(=O)[nH]c1=O,4,-1,-0.5%,0.0,4.6,14
Oc1cccc(-c2nc3c4c(ncn3n2)-c2ccccc2CC42CCCC2)c1,-16,-12,u,-0.2,5.5,-3
COc1ccc(CC(=O)OCC(=O)NCc2ccc(F)cc2)cc1,0,-2,1.1%,0.1,1.7,-4
CC(=O)c1ccc(OCc2cc(C(=O)N3CCN(c4ccccc4)CC3C)no2)cc1 (stereo not drawn),-12,-1,-0.2%,2.1,6.7,-12
CN1CCN(C(=O)CN(C)S(=O)(=O)c2ccc3ccccc3c2)CC1,x,0,1.2%,-0.7,-1.5,-2
O=C(COC(=O)CCCOc1ccccc1)NC1CCS(=O)(=O)C1 (stereo not drawn),-15,3,-1.6%,1.3,0.4,-7
O=C(/C=C/c1ccc(O)cc1)OCc1occc(=O)c1O[C@@H]1OC(CO)[C@@H](O)[C@H](O)[C@@H]1O (stereo partly drawn),2,4,-0.4%,-0.3,-0.8,25
CCOC(=O)c1c(NC(=O)CCCC(=O)O)sc2c1CCC2,0,-2,10%,1.8,1.1,-5
C=CCn1c(O)c2ccc(C(=O)N=NC(=O)COc3ccc(OC)cc3)cc2c1O,0,-1,-2.8%,1.2,-1.7,2
COc1ccccc1NC(=O)c1ccc(Br)o1,-10,-15,0.8%,1.0,-4.9,0
CCN1C(=O)[C@@H]2[C@@H](c3ccc(-c4ccc(F)cc4)c(OC)c3)N3CCC[C@@]3(C(=O)OC)[C@@H]2C1=O,-1,-3,2.9%,-0.6,-1.1,12
COc1ccc(N2CCN(Cc3nc(N)nc(N4CCCc5ccccc54)n3)CC2)cc1,-9,-7,5.3%,1.3,3.7,3
Cc1ccccc1OC1C(=O)N(CC2CCCO2)C1c1ccc2c(c1)OCO2 (stereo not drawn),x,1,2.1%,0.9,-5.2,1
Cc1cc(C)cc(C(=O)Nc2ccc(-c3nc4ncccc4o3)cc2)c1,x,x,11%,0.3,x,27
Cn1cc(C2=C(c3ccc(Cl)cc3Cl)C(=O)NC2=O)c2ccccc21,6,4,2.1%&18%,24&25,4.9,-10
Cc1ccc(CNC(=O)CCCn2c(=O)c3ccccc3n(CC(=O)C(C)(C)C)c2=O)cc1,x,x,-0.7%,1.0,x,9
Cc1onc(-c2c(Cl)cccc2Cl)c1C(=O)Nc1c(C)n(C)n(-c2ccccc2)c1=O,2,0,-5.0%,-0.2,0.2,2
CCOC(=O)C1CCN(C(=O)c2cc3c(=O)n4cccc(C)c4nc3s2)CC1,7,7,7.6%,1.6,1.2,-28
CCN1CNC(=S)N(c2ccccc2OC)C1,-16,-4,3.3%,0.6,-2.0,-5
Cc1ccccc1Cn1cc(NS(=O)(=O)c2cn(C)nc2C)cn1,0,4,-0.2%,0.2,-5.0,7
Cc1cc(C)c(C)c(OCC(=O)O/N=C(\N)c2ccncc2)c1,8,6,6.5%,1.8,8.6,67
O=C1CN(C(=O)COc2ccc(Cl)cc2Cl)c2ccccc2N1,-2,-2,1.1%,-0.3,-1.6,5
CCCNC(=O)c1ccccc1NC(=O)c1ccccc1N(C)S(=O)(=O)c1ccc(C)cc1,4,-1,2.6%,-0.7,-2.9,7
Cc1cccc(C)c1OCc1cc(=O)n2ccsc2n1,x,x,1.4%,1.2,x,-12
Cc1cccc(Nc2nc(N)nc(CN3CCC(C)CC3)n2)c1C,0,2,2.5%[38.3 µM],0.3,-0.6,1
O=[N+]([O-])c1ccc2c(c1)C(=NO)c1cc(F)ccc1-2,-16,u,-1.3%,0.5,8.8,-14
CCOc1cccc(CN2CCCC(C(=O)Nc3ccc(-c4ccn[nH]4)cc3)C2)c1O (stereo not drawn),1,-4,-0.2%,-0.5,-1.8,-4
Cc1ccc(NS(=O)(=O)c2ccc3[nH]c(=O)c(=O)[nH]c3c2)cc1Cl,-4,3,0.4%,-0.5,0.8,-9
CCc1nnc(SCc2ccc(CSc3nnc(CC)n3N)cc2)n1N,-15,3,2.1%,-0.4,-2.8,3
CC(C)Nc1nc(NC(C)C)nc(OCCOC(=O)c2ccccc2)n1,5,-2,-0.2%,0.3,-0.7,13
Cc1cc(C)c(NC(=O)C2CCCN2C(=O)NC2CCCCC2)c(C)c1 (stereo not drawn),3,4,0.6%,0.4,6.5,8
CC(=O)c1ccc(N/C=C/C(=O)c2ccc(Br)cc2)cc1,x,5,2.6%,-0.7,2.5,4
COc1ccc(CCNC(=O)c2[nH]c(C)c(C(C)=O)c2C)cc1,-2,-4,-0.1%,-0.7,-0.8,-24
Nc1ccccc1Sc1ccc(C(=O)c2ccccc2C(=O)O)cc1[N+](=O)[O-],-3,-1,-0.4%,1.9,1.7,5
COC(=O)c1nn(-c2ccccc2)c(Cl)c1/C=N/OCc1c(Cl)cccc1Cl,x,-3,1.3%,-0.1,-3.9,-19
CCOc1ccc(/C=N/NC(=O)C(C)N(c2ccc(OC)cc2)S(C)(=O)=O)cc1OCC (stereo not drawn),x,-1,-1.2%,1.4,4.3,10
O=C(Nc1nccs1)C(F)(F)C(F)(F)C(F)(F)C(=O)Nc1nccs1,-5,-8,0.3%,0.0,1.6,2
COC(=O)c1cnn(-c2ccc(F)cc2F)c1/C=N/NC(N)=S,x,-2,2.4%,-0.6,-2.9,-12
COc1ccccc1C(=O)N/N=C(\C)CC(=O)Nc1ccc(Nc2ccccc2)cc1,-8,-27,0.7%,-0.3,-4.8,0
Cc1cc(C)n2nc(C)c(-c3ccc(Cl)cc3)c2n1,32,32,-1.3%,2.7,-3.6,27
Cc1ccc(CS(=O)(=O)Cc2ccc(C(=O)NCCCN3CC(C)CC(C)C3)o2)cc1 (stereo not drawn),-10,0,1.9%,-0.6,-3.0,2
OC(COc1cccc(OCC(O)CN2CCOCC2)c1)CN1CCOCC1 (stereo not drawn),-4&7,11&6,-0.3%&-0.9%,0.3&0.6,-1.2&-1.6,-14&-7
COc1ccc(-c2nc(CS(=O)CC(=O)NCc3ccco3)c(C)o2)cc1 (stereo not drawn),2,-3,2.2%,-0.1,-1.8,9
CCCN(CCC)c1ccc(/C=N/NC(=O)CN2CCOCC2)cc1,0,0,-0.4%,-1.0,1.1,-23

Looked up by structure from the entries so far, two records:
canonical_smiles,CtBP-E1A inh,Six1-Eya2 blk,PINK1 modulator,TRPML1 agonist,D2 ag,TRPML1 inh
CCOc1ccc(/C=N/NC(=O)C(C)N(c2ccc(OC)cc2)S(C)(=O)=O)cc1OCC (stereo not drawn),x,-1,-1.2%,1.4,4.3,10
COc1ccc(-c2nc(CS(=O)CC(=O)NCc3ccco3)c(C)o2)cc1 (stereo not drawn),2,-3,2.2%,-0.1,-1.8,9

Structures above containing a nitro group on carbon:
canonical_smiles,CtBP-E1A inh,Six1-Eya2 blk,PINK1 modulator,TRPML1 agonist,D2 ag,TRPML1 inh
O=[N+]([O-])c1ccc2c(c1)C(=NO)c1cc(F)ccc1-2,-16,u,-1.3%,0.5,8.8,-14
Nc1ccccc1Sc1ccc(C(=O)c2ccccc2C(=O)O)cc1[N+](=O)[O-],-3,-1,-0.4%,1.9,1.7,5

Other compounds follow:
canonical_smiles,CtBP-E1A inh,Six1-Eya2 blk,PINK1 modulator,TRPML1 agonist,D2 ag,TRPML1 inh
COc1ccc(NC(=O)c2ccco2)cc1S(=O)(=O)N1CCCCC1,-5,0,6.7%,0.2,-2.3,5
Cn1c(N)c(C(=O)COC(=O)CNS(=O)(=O)c2ccc(Cl)c(Cl)c2)c(=O)n(C)c1=O,-18,-12,-0.8%,0.2,-0.8,8
COc1ccc(-c2nnc(SCC(=O)c3ccc[nH]3)o2)cc1,-1,-2,5.3%[38.3 µM],2.4,-0.2,-23
O=C(N/N=C/c1ccsc1)c1cc(-c2ccncc2)nc2ccccc12,-5,-8,5.3%,0.4,2.6,-5
O=C(Nc1ccc2oc(-c3ccc(F)cc3)nc2c1)c1ccccc1F,-1,9,1.0%,-0.6,-1.8,1
CS(=O)(=O)Nc1cccc(NC(=O)c2ccc(-c3ccc(F)c(F)c3)c3ccoc23)c1,0,-11,2.5%,-0.6,2.3,x
CC1=C(C(=O)OC2CCCCCCC2)C(c2cc3c(cc2Br)OCO3)CC(=O)N1 (stereo not drawn),1,-8,-0.1%,0.4,-4.8,8
Cc1n[nH]c(C)c1CCc1nc2c3ccccc3nc(SCC(=O)Nc3ccccc3F)n2n1,-1,1,7.4%,0.7,-2.2,12
COc1ccc(NC(=O)CCS(=O)(=O)c2ccc3c(c2)n(C)c(=O)c(=O)n3C)cc1Cl,x,x,0.0%,0.7,x,-7
CCCCn1c(C)csc1=Nc1cccnc1,-18,-5,0.8%,3.5,-0.8,10
CCc1cccc(C)c1Nc1nn2c(=O)c3ccccc3nc2s1,x,x,0.4%,2.4,x,-17
O=C(CSc1nnc(-c2ccccc2)o1)c1ccc2c(c1)OCCO2,0,14,14%,1.8,-0.4,-28
Cc1cccc(CC(=O)NCCn2c(C)cc3ccccc32)c1,-7,5,4.8%,0.6,-1.5,-2
CCOc1ccc(NC(=O)Cn2cnc3nc4c(cc3c2=O)CCCC4)cc1,x,x,-0.1%,-0.2,x,17
